High-throughput results as filed in PubChem BioAssay.
TAR Tat displ – HIV-1 TAR-Tat binding disruption | HIV-1 TAR RNA, Tat peptide displacement FRET; stronger effect = higher value | z-score (concentration not given with the values) | AID 1259389 | actives 0.6% (n = 100,000);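 further: score is relative to mean and SD of negative controls; some compounds called inactive have numbers as strong as hits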
CDC25B CDK2 inh – human CDC25B-CDK2/CyclinA binding inhibition | HTRF CDC25B-CDK2/CyclinA binding, anti-His/anti-Flag; stronger effect = higher value | z-score (concentration not given with the values) | actives 0.72% (n = 94,000);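 further: score is relative to mean and SD of negative controls; strong numbers were not always called active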
* marks the source's active call; other numbers are inactive results; nt = not tested or not shown.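 How the source made its calls: active means z-score from 3 up in half or more of its runs; inactive means the rest.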

structure | TAR Tat displ | CDC25B CDK2 inh
CC(=O)Nc1c2n(c3ccccc13)CC(C)(C(=O)NC1CCCC1)N(CCC(C)C)C2=O (centres undefined) | 1.2 | nt
COC(=O)C1=C(OC(=O)c2ccc(CN3CCOCC3)cc2)c2ccccc2S(=O)(=O)N1C | -0.23 | 0.66
O=C(CSCCS(=O)(=O)c1ccccc1)NNC(=O)c1ccccc1Cl | nt | -0.06
c1ccc(-n2nnnc2SCCNCc2ccccn2)cc1 | -1.5 | 0.83
O=C(Nc1ccc2c(c1)Sc1ccccc1C(=O)N2C1CC1)c1cnccn1 | 0.54 | nt
CC(C)(C)C1CCC(OC(=O)Cn2cnc([N+](=O)[O-])n2)CC1 (centres undefined) | 0.57 | -1.5
O=C(Cn1cnc(S(=O)(=O)N2CCc3ccccc32)c1)N1CCCCC1 | 0.29 | nt
CN1CCOc2ccc(S(=O)(=O)N3CCc4ccccc4C3)cc21 | 1.8 | nt
O=S(=O)(Cc1ccc(Cl)cc1)NCc1csc(-c2cccs2)n1 | nt | -0.94
CC(C)CCNC(=O)C1c2c(n(C)c3ccccc23)SCC(=O)N1C1CCCC1 (centres undefined) | -0.11 | nt
CC1(C)O[C@H]2OC(C(=O)NCC(=O)Nc3cccc4ccccc34)[C@@H]3OC(C)(C)O[C@@H]3[C@H]2O1 (some centres undefined) | nt | -0.74
O=C(CCC(=O)N1CCOc2ccccc21)N1CCN(c2ccccc2)CC1 | -1.3 | -2.7
COc1ccc(OC)c(C2C(C(=O)OC3CCCC3)=C(C)NC3=C2C(=O)CC(c2cccs2)C3)c1 (centres undefined) | 0.98 | -2.8
CCOCCCNC(=O)c1c(NC(=O)c2cc(=O)c3cc(Cl)ccc3o2)sc2c1CCCC2 | -3.1 | 0.32
Cn1cc(NC(=O)NCCCN2CCc3ccccc3C2)c2ccccc2c1=O | 1.9 | nt
CC(C)(CC(=O)O)CC(=O)NC1CCCCNC1=O (centres undefined) | nt | 0.3
O=C(NCC(c1ccco1)S(=O)(=O)c1cccs1)C1CC1 (centres undefined) | 2.2 | nt
O=C(O)c1ccc(S(=O)(=O)N(Cl)Cl)cc1 | 1.1 | nt
Fc1ccc(CN2CCc3nc(N4CCN(c5ccc(F)cc5)CC4)ncc3C2)cc1 | -0.3 | nt
CCCCNC(=O)Cn1c(=O)c2cccn2c2cccnc21 | -0.87 | nt
CCOC(=O)c1c(C)oc2nc(C)nc(NCCc3ccsc3)c12 | 0.38 | nt
O=C(Nc1cccc(F)c1C(=O)Nc1ccc(F)c(Cl)c1)c1cccs1 | nt | -1.9
CC1(C)Cc2nc3sc4c(=O)n(CCc5ccccc5)cnc4c3cc2CO1 | -1.7 | nt
CCOC(=O)C1CCCCN1S(=O)(=O)c1ccc2c(c1)CCCC(=O)N2 (centres undefined) | 0.64 | nt
CCCN(CCC)C(=O)c1sc2nc(C)nc(N3CCN(c4ccccn4)CC3)c2c1C | nt | -2
O=C(Cn1c(=O)c2cccn2c2cccnc21)NC1CCCC1 | -0.91 | nt
Cc1ccc(S(=O)(=O)c2cn(C)c3cc(N4CCN(C)CC4)c(F)cc3c2=O)c(C)c1 | -0.25 | nt
CCOCc1cc(CN2CCCCC2)c(O)c2ncccc12 | 1.8 | 1.9
COc1ccc(C2C3=C(OC(C)=O)c4ccccc4C3=Nc3c2c(=O)n(C)c(=O)n3C)cc1 (centres undefined) | -0.03 | -1.6
c1cnc2sc(-n3cccc3)nc2c1 | nt | -0.03
Cc1ccc(C)n1-c1nnc(N2CCCC(C(=O)NCCN3CCOCC3)C2)s1 (centres undefined) | -0.31 | 1.2
Clc1ccc(C2=Nn3c(nnc3-c3ccc4c(c3)OCO4)SC2)cc1 | nt | -1.1
O=c1oc2ccc(NS(=O)(=O)c3ccc(F)cc3)cc2s1 | 1.2 | -2.1
COc1ccc(-n2ccc(=O)c(C(=O)Nc3nnc(C)s3)n2)cc1 | 0.23 | -0.31
COc1ccc(OC)c(C2=NS(=O)(=O)N(C)C(C(=O)N(C)C3CCCCC3)=C2)c1 | 1.8 | -1.7
CCCCCCCCCCCC[C@H](C(=O)O)[C@@H](C)C(=O)O | 0.84 | nt
CCCCN(c1ccccc1)S(=O)(=O)c1ccc2c(c1)CC(C)N2C(=O)C1CC1 (centres undefined) | 2.2 | nt
S=C(Nc1ccc2c(c1)oc1ccccc12)Nc1cccc2ccccc12 | nt | 0.92
Cc1cc(C)n(-c2nc3c(c(=O)n2CC(=O)N2CCCCC2)CCC3)n1 | 0.96 | nt
CCOC(=O)c1oc(C(=O)OCC)c(O)c1O | nt | -2.7
O=C1C2N=NN(Cc3ccccc3Cl)C2C(=O)N1c1ccc(F)cc1 (centres undefined) | -0.46 | -1.7
CC(=O)Nc1ccc2nc(N)sc2c1 | nt | -1.1
O=C(NCCC1=CCCCC1)c1ccc2c(c1)nc1n2CCOC1 | 0.07 | nt
CCc1cc2c(cc(C(=O)OC)n2CC(=O)N2CCCCC2CC)s1 (centres undefined) | -0.71 | -1.4
Cc1cc2c(Nc3cccc(Cl)c3C)ncnc2s1 | nt | -2.3
CCO/C(C)=C(\C#N)C(N)=S | nt | -1
CCOC(=O)C1N=C2C(=[N+]([O-])C1N)COC(C)(C)/C2=N\O (centres undefined) | nt | -2.5
CNC(=O)CC1Sc2ccccc2NC1=O (centres undefined) | -1.1 | -0.36
COc1ccc(OC)c(CCC(=O)O)c1 | 1.3 | -0.46
Fc1cc(F)cc(CN2CCc3nc(N4CCCC4)ncc3C2)c1 | 1.4 | nt
O=C(Nc1ccccc1F)c1sc(=S)n2c1[nH]c(=O)c1ccccc12 | 0.1 | nt
O=c1oc2ccccc2n1CC(O)Cn1c(=O)oc2ccccc21 | -2.7 | -1.6
CSc1nnc(SCC(N)=S)s1 | nt | -1.9
Cc1cccc(-c2noc(-c3ccc(C)cc3Cl)n2)c1 | 0.94 | -0.92
COc1cc(C2Nc3nonc3NC3=C2C(=O)CC(C)(C)C3)cc(Br)c1O (centres undefined) | 0.22 | -1.5
Nc1c(-c2nc(-c3ccc(F)cc3)no2)nnn1-c1cccc(Cl)c1 | -4.3 | nt

(more compounds)
Fields – TAR Tat displ	CDC25B CDK2 inh
O=S(=O)(Nc1cccc(-c2nc3cccnc3s2)c1)c1ccc2c(c1)OCCO2
→ nt	-1.1
O=C(c1ccc(F)cc1)c1c[nH]c2ccccc2c1=O
→ nt	-0.6
Cc1cccc(N2CCN(C(=O)c3ccc4c(c3)NC(=O)CS4)CC2C)c1 (centres undefined)
→ nt	-2.6
Cc1cc2oc(C(=O)NC3CCS(=O)(=O)C3)cc(=O)c2cc1C (centres undefined)
→ -0.49	-0.79
CCOC(=O)C(C)Sc1ccc2nnc(CCNS(=O)(=O)c3ccc(C)cc3)n2n1 (centres undefined)
→ 0.5	nt
Cc1ccc(Cn2cc(C(=O)c3ccc(F)cc3)c(=O)c3cc4c(cc32)OCO4)cc1
→ -2	0.19
COC(=O)CN1C(=O)C(C)(C)c2cc(S(=O)(=O)Nc3ccc(Br)cc3F)ccc21
→ 0.87	nt
Cc1ccc2c(c1)NC(CCC(=O)N1CCN(Cc3ccc4c(c3)OCO4)CC1)=NS2(=O)=O
→ 1.3	nt
CN(Cc1ccccc1)c1ncnc2c1cnn2-c1cccc(Cl)c1
→ 1.3	nt
CCOC(=O)c1noc2ncn(CC(=O)O)c(=O)c12
→ 2.5	0.09
CCOc1cc(-c2ccc(OC)c(OC)c2)cc(=O)c2c(C)oc(C)c12
→ -2.9	-0.12
COc1ccc(-c2onc(C)c2C)cc1S(=O)(=O)N1CCCC1
→ 1.3	nt
CCOC(=O)c1cn(-c2cccc(F)c2)nn1
→ -0.32	-1.6
CC(C)(C)NS(=O)(=O)c1ccc2c(c1)C(=O)c1cc(S(=O)(=O)NC(C)(C)C)ccc1-2
→ 1	-3.3
Cc1nn(-c2cc(C)c3ccccc3n2)c2c1CCC2
→ nt	-1.7
Cn1c(C(=O)N2CCN(c3ccccn3)CC2)cc2sccc21
→ 0.31	-1.7
Cc1ccc(NC(=O)Nc2nnc(Cc3cccc(Br)c3)s2)cc1
→ nt	-2.6
Cc1ccc(NC(=O)Nc2c(C3=CCCCC3)c(C)nn2C)cc1F
→ 0.75	2.6
COc1ccc(CN2CCN(Cc3ccc4c(c3)OCO4)CC2)cc1OC
→ 1.9	-0.6
CCOC(=O)c1noc2nc(C)nc(Nc3ccc4c(c3)OCCO4)c12
→ 0.49	nt

No new results follow: entries from further up.
Fields – TAR Tat displ	CDC25B CDK2 inh
O=S(=O)(Nc1cccc(-c2nc3cccnc3s2)c1)c1ccc2c(c1)OCCO2
→ nt	-1.1
O=C(c1ccc(F)cc1)c1c[nH]c2ccccc2c1=O
→ nt	-0.6

Next section
Fields – TAR Tat displ	CDC25B CDK2 inh
Cn1nc(NC(=O)COCC(=O)O)c2c(F)cccc21
→ nt	-0.52
O=C(Nc1nnc2n1CCS2)c1cc(=O)c2ccccc2o1
→ 1.1	nt
Cc1cc(Sc2nnc(C(F)(F)F)n2C)c([N+](=O)[O-])cc1[N+](=O)[O-]
→ nt	-2.9
O=C(Nc1c(C(=O)Nc2cccc(Cl)c2)oc2ccccc12)c1csnn1
→ 0.27	0.64
CCOc1ccc(C(=O)CSc2cc(C)ncn2)cc1
→ 1.8	-2.7
Cc1cc2nc(COc3cccc(NC(=O)COc4ccccc4)c3)cc(=O)n2o1
→ -0.28	0.46
C=CCn1c(SCC(=O)Nc2nc(C)cs2)nc2c([nH]c3ccccc32)c1=O
→ 1.8	nt
CNC(=S)NNC(=O)c1ccccn1
→ nt	-0.09
Cc1cc(-c2ccccc2)c2c(N)c(C(N)=O)sc2n1
→ -0.07	-1.2
COC(=O)C(C(=O)OC)c1ccc(Cl)cc1[N+](=O)[O-]
→ nt	-2.1
CCOC(=O)N1CCN(C(=O)c2cn(C)c3ccc(S(=O)(=O)N(CC)CC)cc3c2=O)CC1
→ -1.3	-0.9
O=C(NCc1cccnc1)c1ccc([N+](=O)[O-])o1
→ 1.8	-0.19
Cc1ccc(-c2c3c(=O)n(C)c(=O)n(C)c3cn2-c2cc(C)ccc2O)cc1
→ -0.54	-1.4
COc1ccc(S(=O)(=O)[C@H]2CS(=O)(=O)C[C@@H]2N2CCc3ccccc3C2)cc1
→ 26	-0.64
CCOC(=O)c1sc2nc(C)nc(Nc3ccc(C)c(F)c3)c2c1C
→ nt	-0.45
Cc1cc(C)cc(NC(=O)Oc2ccccc2N2CCCCC2)c1
→ nt	-2.9
O=C(CCc1nc(-c2ccncc2)no1)Nc1cccnc1
→ 2.4	-1.5
CC1CCCCN1C(=O)C1=CC(c2cccs2)=NS(=O)(=O)N1C (centres undefined)
→ 2.7	-2.5
Cc1csc(NC(=O)C2CCN(S(=O)(=O)c3cc(C(=O)N4CCC(C)CC4)cs3)CC2)n1
→ 4	nt
COc1cccc(-c2[nH]nc3nc(-c4ccc(OC)cc4OC)cc(C(=O)O)c23)c1
→ -0.96	-1.8

Record cards (already shown). Screens in order: TAR Tat displ, CDC25B CDK2 inh
COc1cccc(-c2[nH]nc3nc(-c4ccc(OC)cc4OC)cc(C(=O)O)c23)c1 across the screens: -0.96, -1.8
Cc1csc(NC(=O)C2CCN(S(=O)(=O)c3cc(C(=O)N4CCC(C)CC4)cs3)CC2)n1 across the screens: 4, nt
O=C(CCc1nc(-c2ccncc2)no1)Nc1cccnc1 across the screens: 2.4, -1.5
O=C(Nc1c(C(=O)Nc2cccc(Cl)c2)oc2ccccc12)c1csnn1 across the screens: 0.27, 0.64
O=C(NCc1cccnc1)c1ccc([N+](=O)[O-])o1 across the screens: 1.8, -0.19

Following part
Fields – TAR Tat displ	CDC25B CDK2 inh
CCC(C(=O)NCC1CCCO1)n1c2ccccc2c2nc(=O)cc(C)n21 (centres undefined)
→ -0.92	-0.04
CCc1ccc2oc(C(=O)Nc3nc4ccc(S(C)(=O)=O)cc4s3)cc(=O)c2c1
→ 1.6	0.91
Cc1nc2ccccn2c(=O)c1C(=O)O
→ -1.8	1.6
Cc1ccsc1CCNC(=O)c1cc(S(=O)(=O)N2CCCCC2)c[nH]1
→ 2.9	nt
CCC(C)NC(=O)C1CCN(S(=O)(=O)c2ccc3nc4c(c(C(=O)O)c3c2)CC(C)CC4)CC1 (centres undefined)
→ -0.47	-0.9
Cc1ncc(-c2ccc(C)c(S(=O)(=O)NC3CCCC3)c2)o1
→ 0.98	nt
O=C(Nc1ccc(S(=O)(=O)N2CCCC2)cc1)C1COc2ccccc2O1 (centres undefined)
→ 0.74	2.5
COC(=O)c1cc2oc3ccccc3c2n1CC(=O)Nc1cccc(SC)c1
→ 0.18	8.9
O=c1c2nccnc2nc(SCc2ccccc2F)n1Cc1ccc2c(c1)OCO2
→ -2.8	nt
O=S(=O)(NCCc1csc2nc(-c3ccccc3)nn12)c1ccc2c(c1)CCCC2
→ 1.8	nt
O=C(Nc1ccccc1Cl)c1cc2c(s1)-c1ccc(Cl)cc1S(=O)(=O)C2
→ 0.36	-1.2
CCC(CC)C(=O)N1CCNc2ccccc2C1
→ 1.4	-1.7
CCOC(=O)C1CCCN(C(=O)c2sc3nc4n(c(=O)c3c2C)CCCC4)C1 (centres undefined)
→ 0.54	nt
CCc1cc(C(=O)Cc2ccc3c(c2)OCCCO3)c(O)cc1OC
→ nt	-0.79
O=C(CCS(=O)(=O)c1ccc2c(c1)CCN2C(=O)C1CC1)Nc1ccc(Cl)cc1
→ 0.04	nt
N#Cc1nc(COc2ccccc2Cl)oc1NCc1ccco1
→ 1.4	-0.27
NC(=O)CSc1ccc2ccccc2n1
→ 1.3	0.21
O=c1[nH]c(=S)[nH]c2sc3c(c12)CCCC3
→ nt	-3.3
CCn1cnc(S(=O)(=O)N2CCC(C(=O)N3CCC(N4CCCCC4)CC3)CC2)c1
→ 0.69	nt

An unsorted share of the library; about 0.87% have a hit in one of these screens.
